# PABP polyA inh = PABP poly(A) RNA binding inhibitors, primary screen, biochemical, fluorescence polarization, uHTS; Polyadenylate-binding protein 1 (Homo sapiens), P11940; inhibition, % at 35 µM; 1% of 290,000 active; AID 2014, 2009;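 active = 50% or more with normal probe brightness, or confirmed in later tests; about a fifth of its hits are not listed in these tables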;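 note: calls also rest on retests at 20 µM and on dose response follow-up; controls were probe without protein and protein plus probe with vehicle; some compounds called inactive have numbers as strong as hits; many hits fall short of the cut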
# Target sequence (P11940 whole entry, looked up): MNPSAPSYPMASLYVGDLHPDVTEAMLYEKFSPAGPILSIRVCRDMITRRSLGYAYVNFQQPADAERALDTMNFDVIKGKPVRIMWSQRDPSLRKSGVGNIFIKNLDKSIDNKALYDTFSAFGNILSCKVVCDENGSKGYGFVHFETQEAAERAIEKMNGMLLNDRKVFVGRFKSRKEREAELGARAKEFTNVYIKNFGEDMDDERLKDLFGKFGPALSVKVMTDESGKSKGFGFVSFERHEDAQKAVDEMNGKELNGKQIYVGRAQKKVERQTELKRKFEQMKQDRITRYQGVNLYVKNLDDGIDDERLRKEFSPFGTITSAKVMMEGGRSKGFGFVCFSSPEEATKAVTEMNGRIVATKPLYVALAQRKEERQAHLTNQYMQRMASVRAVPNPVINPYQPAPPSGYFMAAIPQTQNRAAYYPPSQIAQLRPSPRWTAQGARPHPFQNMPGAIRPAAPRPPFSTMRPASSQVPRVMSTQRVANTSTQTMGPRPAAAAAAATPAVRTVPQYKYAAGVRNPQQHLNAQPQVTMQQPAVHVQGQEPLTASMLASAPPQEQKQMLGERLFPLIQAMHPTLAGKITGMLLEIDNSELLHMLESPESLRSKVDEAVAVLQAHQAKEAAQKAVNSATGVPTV
# CSC inhib = cancer stem cell viability inhibitors, primary screen, luminescence | cancer stem cell-like cells viability | inhibition, % at 7.5 µM | 1.1% of 300,000 active | AID 2717, 2010;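 active = mean at 75% or more and at least half the replicates too; tested in HMLE shEcad cells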;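 note: 0% = median of negative and 100% = median of positive control wells; the first replicate is given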
# eIF4H FP inh = human eIF4H binding inhibitors, primary screen, translation initiation inhibitor project, biochemical, uHTS, fluorescence polarization; Eukaryotic translation initiation factor 4H (Homo sapiens), Q15056; eIF4H fluorescence polarization binding assay; inhibition, % at 35 µM; 0.94% of 290,000 active;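 active = 50% or more with normal probe brightness, or confirmed in later tests; about a fifth of its hits are not listed in these tables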;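 note: calls also rest on retests at 20 µM and on dose response follow-up; 0% = protein and probe with vehicle and 100% = probe without protein; strong numbers were not always called active; many hits fall short of the cut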
# UUG fidelity = modulators of yeast start codon fidelity, primary screen, whole organism, S. cerevisiae, single point, plate reader | activity score, % at 18.7 µM | S. cerevisiae UUG-firefly luciferase reporter, luminescence/redox ratio | 0.13% of 350,000 active;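 active = replicate mean at a twofold rise or more, about +100% in these data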;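 note: firefly luciferase made from a UUG start codon reports start codon fidelity; reporter light over untreated wells divided by growth signal over untreated wells; some hits fall short of that in this replicate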
# MT1-MMP act inh = blockers of MT1-MMP proenzyme processing, primary screen, HT1080 RFP-PRO-GFP cells, GFP/RFP fluorescence | Matrix metalloproteinase-14 (Homo sapiens), P50281 | GFP/RFP ratio fluorescence, overnight; percent of plate control window, DMSO zero | GFP/RFP ratio change, % at 20 µM | 0.061% of 360,000 active | AID 651647, 2012;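 active = GFP/RFP ratio change of at least 30% with cell ATP level not reduced by more than half and red fluorescence within 50% of control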; note: strong numbers were not always called active
#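 system = RFP-PRO-GFP reporter HT1080 cells | dosing = 20 µM single dose, 1% DMSO | timing = overnight cell settling, then overnight compound exposure, 37 °C, 5% CO2 | read-out basis = GFP/RFP fluorescence ratio | controls = DMSO and RFP-L50D-GFP cell wells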
# Rce1 inhib = yeast Rce1p protease inhibitors, primary screen, biochemical, fluorescence, cell-free homogeneous; calls only; AID 2563, 2010; yeast membranes, quenched prenylated peptide cleavage fluorescence; CAAX prenyl protease 2 (Saccharomyces cerevisiae (strain ATCC 204508 / S288c)), Q03530; 0.27% of 290,000 active;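 active = fall in fluorescence gain of 50% or more versus controls, with final raw signal at or below 3038400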;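 note: plate controls were neutral control wells for no effect and wells lacking membranes for full effect; tested at 10 µM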
# Env fusion inh = inhibitors of HIV-1 Env-driven cell-cell fusion, primary screen, HeLa-JRFL effector, CEM21 target cells, luciferase | inhibition, % at 12.3 µM | 1.1% of 360,000 active | AID 651610, 2012;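 active = mean replicate inhibition score of at least 50 and every replicate individually at or above 50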;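 note: 0% = plate neutral controls and 100% = maraviroc near 300 nM; one replicate is shown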
# MT1-MMP act inh RFP = recorded beside MT1-MMP act inh, whose call it bears; RFP signal change, %; measured here: RFP expression control read;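 0 = vehicle wells; hits needed this value within 50% of zero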
# The depositor's hits bear a star; i = inactive; . = no result given; & = joins results of further samples.
SMILES,PABP polyA inh,CSC inhib,eIF4H FP inh,UUG fidelity,MT1-MMP act inh,MT1-MMP act inh RFP,Rce1 inhib,Env fusion inh
O=C(NCc1ccncc1)c1ccc(Oc2ccccc2)cc1,6,-6,-12,.,-12,-25,i,27
CCOC(=O)c1ccc(-n2nc(C)cc2C)cc1,-10,1,-12,.,1,-4,i,7
CCn1c(Cc2cccs2)nnc1SCC(=O)NC(C)(C)C,9,-5,10,.,0,2,i,25
CCOC(=O)N1CCN(S(=O)(=O)c2ccc(C(=O)N(CCN(C)C)c3nc4c(C)cccc4s3)cc2)CC1,5,14,-5,-1,-3,2,i,-2
O=C(COC(=O)C1(c2ccccc2)CC1)N1CCN(c2ccc(F)cc2)CC1,5,31,4,3,-1,-2,i,5
CC(C)(Cl)C1Cc2cc3ccc(=O)oc3cc2O1 (stereo not given),10,-12,-2,-10,9,0,i,.
N#CC1=C(Nc2ccccc2)SC=C(c2ccc(F)cc2)N=C1N1CCOCC1,-1,-3,-5,.,.,.,i,.
CCOc1ccc(S(=O)(=O)NCC2CCCO2)c2ccccc12 (stereo not given),-3,-8,16,-11,0,-3,i,-11
OC[C@@H]1CN(Cc2ccc3c(c2)OCO3)C[C@H](n2cnc3c(N4CCCC4)ncnc32)O1,.,.,.,-1,-1,2,.,19
COc1ccc(C(NC(=O)c2cccc(F)c2)c2ccccc2)cc1 (stereo not given),-3,2,0,-11,-1,0,i,23
Cc1oc2ccc(O)cc2c1C(=O)OC(C)C,-3,-13,-2,-15,0,-1,i,-32
COC(=O)c1sc(NC(=O)CSc2nnc(Cn3nnc4ccccc43)n2C)nc1C,-11,2,-5,.,-17,-5,i,3
COc1ccccc1CC(=O)Nc1ccc(-c2noc(COc3cccc(C)c3C)n2)cc1,-6,3,-10,-13,4,3,i,-5
O=C(NCc1cn2ccsc2n1)Nc1cccc(Cl)c1,9,.,-10,-12,-1,-5,i,.
Cc1ccc(C(=O)NCc2ccc3c(c2)OCO3)o1,4,.,6,8,-3,5,i,-15

# Shown tab-delimited: entries from further up.
SMILES	PABP polyA inh	CSC inhib	eIF4H FP inh	UUG fidelity	MT1-MMP act inh	MT1-MMP act inh RFP	Rce1 inhib	Env fusion inh
COC(=O)c1sc(NC(=O)CSc2nnc(Cn3nnc4ccccc43)n2C)nc1C	-11	2	-5	.	-17	-5	i	3
CCOC(=O)N1CCN(S(=O)(=O)c2ccc(C(=O)N(CCN(C)C)c3nc4c(C)cccc4s3)cc2)CC1	5	14	-5	-1	-3	2	i	-2

# Next part:
SMILES,PABP polyA inh,CSC inhib,eIF4H FP inh,UUG fidelity,MT1-MMP act inh,MT1-MMP act inh RFP,Rce1 inhib,Env fusion inh
CN(Cc1ccccc1)C(=O)COc1ccc(C(C)(C)C)cc1,-5,22,7,4,3,2,i,-7
CC(=O)N(CCS(=O)(=O)c1ccc(Cl)cc1)Cc1cccs1,-1,-6,3,.,2,-1,i,-13
O=C(Nc1cccc(S(=O)(=O)N2CCOCC2)c1)c1cnn2c(C(F)F)cc(-c3ccccc3)nc12,5,11,-7,.,4,-1,i,1
COc1ccc(C(C#N)=Cc2ccccc2OC)cc1,.,.,.,-13,-2,-10,.,-156
CN(Cc1nc(-c2cnccn2)no1)Cc1n[nH]c2c1CCCC2,-5,.,-5,.,0,1,i,3
Cc1cccc(OCCC(=O)Nc2ccc(C)c(S(=O)(=O)N3CCOCC3)c2)c1,.,-1,.,-3,1,-6,.,.
CC(=O)c1cccc2c(O)c(C3=Nc4ccccc4C3=O)[nH]c12,2,3,17,-18,13,6,i,-54
O=C(O)C1CCCCC1C(=O)Nc1cnn(Cc2ccccc2)c1 (stereo not given),-5,3,-4,-15,-1,1,i,.
CCCN(CCC)c1c([N+](=O)[O-])c(=O)oc2ccccc12,-5,-8,-3,.,-1,2,i,-3
CCOC(=O)N1CCN(c2c(NCCc3ccc(C)cc3)c(=O)c2=O)CC1,-8,-8,2,-4,0,4,i,-9
CCOC(=O)N1CCN(C(=O)c2ccc3c(c2)sc2nc(-c4ccccc4)cn23)CC1,-2,-9,-10,9,1,-14,i,.
CNC(=O)c1c(C)nn(-c2ccc(F)c(Cl)c2)c1-c1cc(C)on1,5,-10,-1,-17,-1,-3,i,-7
Cc1ccc(NC(=O)C(=O)NCc2ccc(/C=C(/C#N)C(=O)NCc3cccnc3)o2)cc1C,3,-8,4,-11,2,-4,i,-1
Cc1ccc(NC(=O)CN2CCc3ccccc3C2)cc1F,12,1,-4,-16,7,6,i,3
CN(C(=O)c1cccc(NC(=O)Cc2ccc(NC(=O)C3CCCN(C(=O)C4CCC4)C3)cc2)c1)C1CCCCC1 (stereo not given),.,.,.,-5,-2,-8,.,-17
Cc1cccc(NC(=O)COC(=O)c2ccc3c(=O)n4c(nc3c2)CCC4)c1,9,.,1,-7,3,3,i,10
CCOC(=O)Nc1ccc2c(CN(C)Cc3ccc(F)cc3)cc(=O)oc2c1,10,-7,-1,-17,0,2,i,-9
COc1ccc(C(NC(=O)/C=C\c2ccco2)c2ccc(OC)c(OC)c2)cc1 (stereo not given),-4,-1,12,-10,-11,-1,i,-53
CC12CC(NC(=O)N1c1cccc(C(=O)NCc3ccccn3)c1)c1ccccc1O2 (stereo not given),-5,-14,6,-5,-1,-4,i,2
CCCSc1cc(NCCOC(=O)CCC)c([N+](=O)[O-])c2nonc12,1,-6,-8,.,0,-3,i,2
Cc1nc2ccccc2c(=O)n1/N=C/c1cn[nH]c1-c1ccccc1,14,-11,-5,-17,4,1,i,-7
COCC(=O)Nc1ccc(S(=O)(=O)Nc2cc(C)nc(C)n2)cc1,-9,-4,2,-14,6,0,i,.
O=C(N/C(=C\c1ccco1)C(=O)N1CCOCC1)c1ccc([N+](=O)[O-])cc1,8,-13,15,-14,-2,3,i,-1
CC(C)CC(=O)Nc1cc([N+](=O)[O-])ccc1Cl,-9,-3,-3,-16,2,7,i,.
COc1cc(NC(=O)C[n+]2ccc(C(=O)c3ccccc3)cc2)cc(OC)c1,.,-17,.,3,0,-1,.,-16
CCOC(=O)c1ccc(NC(=S)N2CCCC(C)C2)cc1 (stereo not given),7,-15,3,-33,-3,-1,i,-10
CCN(CC)CCCNC(=O)Cn1ncc2c(=O)oc3ccc(C)cc3c21,9,-7,1,18,4,3,i,15
COc1ccccc1/C=C/C(=O)NCc1ccccn1,2,.,5,.,7,7,i,-4
COc1ccc(C(=O)NCC(=O)OCC(=O)c2ccc(Cl)cc2)cc1OC,12,-9,2,-15,-2,3,i,-2
C=CCNC(=O)CC1C(=O)NCCN1Cc1ccc(-c2ccccc2)cc1 (stereo not given),10,16,6,.,0,3,i,11

# Grouped by structure: the entries above with a thiophene ring, fused or not.
SMILES,PABP polyA inh,CSC inhib,eIF4H FP inh,UUG fidelity,MT1-MMP act inh,MT1-MMP act inh RFP,Rce1 inhib,Env fusion inh
CCn1c(Cc2cccs2)nnc1SCC(=O)NC(C)(C)C,9,-5,10,.,0,2,i,25
CC(=O)N(CCS(=O)(=O)c1ccc(Cl)cc1)Cc1cccs1,-1,-6,3,.,2,-1,i,-13

# Returning to the listing; the two compounds before the break are reprinted first.
SMILES,PABP polyA inh,CSC inhib,eIF4H FP inh,UUG fidelity,MT1-MMP act inh,MT1-MMP act inh RFP,Rce1 inhib,Env fusion inh
COc1ccc(C(=O)NCC(=O)OCC(=O)c2ccc(Cl)cc2)cc1OC,12,-9,2,-15,-2,3,i,-2
C=CCNC(=O)CC1C(=O)NCCN1Cc1ccc(-c2ccccc2)cc1 (stereo not given),10,16,6,.,0,3,i,11
CCOC(=O)CC(NC(=O)C1c2ccccc2Oc2ccccc21)c1ccccc1Cl (stereo not given),3,11,8,.,-9,-6,i,8
Nc1c(C(=O)CSc2nnnn2-c2ccccc2)c(=O)[nH]c(=O)n1C1CC1,.,-14,.,-9,2,2,.,-8
O=[N+]([O-])c1cccc(S(=O)(=O)N2CCc3ccccc3C2)c1,0,-10,-8,-24,4,-1,i,-1
CC1(C(=O)NS(=O)(=O)c2cccs2)CCN1C(=O)C1(c2ccc(Cl)cc2)CCC1 (stereo not given),.,.,.,-34,0,5,.,10
CCc1cccc2c(C(=O)C(F)(F)F)cn(CC(=O)N3CCOCC3)c12,1,-1,0,.,-1,0,i,-26
COc1ccc(OCCn2c(C)nc3ccccc32)cc1,.,.,.,6,6,-10,.,-14
CCCNC(=O)C1(C)CCCN(C(=O)c2ccccc2OC)C1 (stereo not given),.,.,.,-2,1,3,.,-18
O=C(NCCC1CCCCN1S(=O)(=O)c1ccc(Cl)cc1)C(=O)NCCN1CCOCC1 (stereo not given),.,-10,.,-12,-2,0,i,.
O=C(c1cc2c(=O)oc3ccccc3c2s1)N1CCOCC1,-4,4,3,-5,4,3,i,-3
NC(=O)c1sc2nc3c(c(-c4ccc(Cl)cc4)c2c1N)CCCC3,14,-9,-10,-16,-4,-13,i,-34
COc1cccc2cc(C(=O)NCCN3CCOCC3)oc12,3,-2,-14,3,0,2,i,24
CC(C)CCN1C(=O)c2ccc(C(=O)Nc3ccc(Br)cc3C(=O)O)cc2C1=O,14,12,4,-13,2,4,i,-2
CCOc1ccc(NC(=O)CN(C)C(=O)c2ccc3c(c2)C(=O)N(CCC(C)C)C3=O)cc1OCC,-12,1,-8,-11,1,-4,i,-8
O=C(Nc1ccc(Nc2ccccc2)cc1)c1c(Cl)cccc1Cl,.,.,.,-4,15,-11,i,-12
Cc1ccc(C)c(S(=O)(=O)N2CCCOC2CNC(=O)C(=O)NC2CCCCC2)c1 (stereo not given),11,5,11,-19,-1,-1,i,9
Cc1ccc(-n2c(Cn3nc(C(F)(F)F)cc3C)n[nH]c2=S)cc1,0,-17,3,.,-1,-2,i,.
COc1ccccc1-c1sc2cc3c(cc2c1C#CCO)OCO3,.,51,.,-10,0,1,.,-32
C[C@@H]1CN([C@H](C)CO)C(=O)CCCn2nncc2CO[C@@H]1CN(C)C(=O)C1CC1,.,.,.,-11&0,-2,4,.,3
CCN(CC)S(=O)(=O)c1cccc(NC(=O)COc2ccc(Cl)cc2Br)c1,9,-5,1,-10,3,-18,i,.
COc1cccc(C2C(C(N)=O)=C(C)Nc3nc(CCCO)nn32)c1OC (stereo not given),-10,-33,-6,-10,0,1,i,-12
COc1cccc(/C=N/n2c(COc3ccccc3)n[nH]c2=S)c1,-1,-12,6,-21,0,2,i,15
Cc1ccc(C2=NNC(=O)C(c3ccc(Cl)cc3)C2)cc1 (stereo not given),-1,2,12,-16,-3,-6,i,.
Cc1ccc(C(=O)N2CCCC(CCC(=O)NCc3ccccc3F)C2)cn1 (stereo not given),4,-6,45,-4,0,3,i,.
CC[n+]1c(/C=C2\C=C(C)CC(C)C2)sc2ccccc21 (stereo not given),18,-1,-6,-6,-3,-3,i,.
O=C(CC1OC(=O)c2ccccc21)NC1CCCCC1 (stereo not given),-6,-4,-2,-22,4,9,i,.
Cc1occc1C(=O)NNC(=S)NCC(C)C,0,-13,-3,.,2,5,i,.
Cc1ccc(Cl)cc1NC(=O)COC(=O)CCN1C(=O)C2CC=CCC2C1=O (stereo not given),.,18,.,-2,-2,3,.,-3
CC(C)=CCN1CCN(Cc2cn[nH]c2C2CCCCC2)CC1CCO (stereo not given),-6,-11,-3,.,.,.,i,6
O=C(c1ccccc1)N1CCCOC1c1ccccc1 (stereo not given),16,1,1,-2,-1,4,i,-16
COc1cccc(NC(=O)Nc2ccc(Cc3ccncc3)cc2)c1,-16,6,4,-12,-4,-8,i,1
COc1ccc(CNC(=O)CSc2nnc3c(n2)[nH]c2ccccc23)cc1,4,-9,-3,-21,-3,-3,i,-12

# Assay outcomes (PubChem BioAssay)
